Source: PubChem (several laboratories)
Mtb hypoxia inh = reduces hypoxia-regulated biosensor signal in M. tuberculosis. M. tuberculosis hypoxia-regulated fluorescent reporter, fluorescence. fluorescence inhibition, % (test concentration not listed). 300,000 compounds, 0.1% hits. AID 1159583;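 active = 35 to 45% if threefold the growth effect, above 45% if 1.5-fold the growth effect; inactive = the rest, general growth blockers included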;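 note: wells of about 50 µL received 100 nL stock; 0% = vehicle wells and 100% = reference inhibitor wells; whole bacteria with a GFP reporter of the hypoxia response; strong numbers were not always called active; many hits fall short of the cut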
PrP 5UTR inh = inhibition of PrP 5' UTR reporter expression. inhibition, % (test concentration not listed). cell-based PrP 5' UTR mRNA reporter, plate reader. AID 488862. 340,000 compounds, 0.35% hits;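 active = every replicate at 50% or more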;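 note: 0 = median of the neutral control wells; tested in H4 reporter cells; numbers are from one replicate; inactives centre near -14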
Autofluor counter = flagged as autofluorescent in microsphere protease counterscreen. compound autofluorescence counterscreen, microsphere flow cytometry; stronger effect = higher value. fluorescence intensity (test concentration not listed). 360,000 compounds, 3.1% hits. AID 624483;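 active = at least 3 SD above the mean of all compounds, about 16000 in these data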;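 note: 100 nL of 1 mM stock went into each well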
Sa RN4220 lethal = S. aureus RN4220 growth inhibition | OD600, 16 h | inhibition, % (concentration not given with the values) | 330,000 compounds, 0.33% hits;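 active = z-score of -3 or lower and OD600 up to 0.18 on both plates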;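 note: plate controls were untreated cells for no effect and reference antibiotic for full effect; stock transfer was 100 nL into about 80 µL; one replicate is shown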
Sa ugtP lethal = growth inhibition of S. aureus ugtP deletion strain. AID 1259309. growth inhibition, % (concentration not given with the values). S. aureus RN4220 ugtP deletion, OD600 growth, 16 h; some inactives read as strong as hits. 330,000 compounds, 0.54% hits;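 active = z-score under -3 and OD600 up to 0.15 on both plates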;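 note: plate controls were untreated wells for no effect and antibiotic for full effect; wells of about 80 µL received 100 nL stock; the first replicate is given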
BJeLR lethal = kills HRASV12-expressing BJeLR cells. AID 1554. inhibition, % (test concentration not listed). 300,000 compounds, 0.17% hits. BJeLR (HRASV12) viability, CellTiter-Glo ATP luminescence, 48 h; reference of the scale not given here;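 active = replicate mean above 50%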;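 note: 50 nL library stock added to about 25 µL; numbers are from one replicate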
Mtb hypoxia inh growth = second read-out of Mtb hypoxia inh, no call of its own (marks repeat the call); growth inhibition, %; measured here: M. tuberculosis growth (absorbance);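 0% = vehicle and 100% = reference antibiotic; read after six days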
Active calls of the source: *; . = not tested or not shown.

SMILES	Mtb hypoxia inh	Mtb hypoxia inh growth	PrP 5UTR inh	Autofluor counter	Sa RN4220 lethal	Sa ugtP lethal	BJeLR lethal
Cc1nn(-c2ccc(N3CCOCC3)nn2)c(C)c1CCC(=O)Nc1ccccc1	5	7	-31	5727	0.9	-2	4
O=C(Nc1ccc(F)cc1)C1CCCN(S(=O)(=O)c2cccc3cccnc23)C1 (configuration not stated)	.	.	-16	5653	-2.0	-3	-3
CCN(CC)C(=O)[C@H]1C[C@H](CC(=O)NCC23CC4CC(CC(C4)C2)C3)C(=O)N2CCc3c([nH]c4ccc(Cl)cc34)[C@]12C	2	7	-23	4102	-16	-16	.
Cn1c(=S)n(N=Cc2cccs2)c2ccccc21	13	8	.	.	7.4	8	.
Cc1c(C)c2cc(Cl)c(O)c(CN3CCN(C)CC3)c2oc1=O	-6	-2	-2	3895	1.1	-2	-3
Cc1cc(C=NNC(=O)c2c(Br)cnn2C)c(C)n1-c1cccc(Br)c1	9	3	.	.	1.2	27	.
Cc1ccccc1NC(=O)CCOc1ccccc1	21	4	-17	4221	0.6	9	-2
CCn1c(SCC(=O)OC)nnc1-c1c[nH]c2ccccc12	2	-6	-19	5256	4.7	9	-5
Nc1cccc2c3c(oc12)CCCC3	0	-1	-11	3263	4.4	-5	-13
CCOc1ccc(NS(=O)(=O)c2ccc3ncsc3c2)cc1	-1	0	-33	2163	2.4	4	0
CCN(CC)S(=O)(=O)c1ccc(Nc2cc(C)nc3ncnn23)cc1	-1	6	-17	11127	-0.7	-5	0
O=C(N/N=C/c1cc2cc3c(cc2nc1Cl)OCO3)c1ccncc1	.	.	-5	4289	.	.	6
Cc1ccccc1NC(=O)CSc1nc(-c2ccccc2)cc(=O)[nH]1	-3	-2	-9	4328	2.5	1	1
CON=Cc1ccc(N2CCN(C(=O)c3cccc(Cl)c3)CC2)c([N+](=O)[O-])c1	5	6	.	.	5.3	-1	.
CCOC(=O)c1c(NC(=O)CN2CCN(C(=O)C3CCCO3)CC2)sc(C)c1C (configuration not stated)	0	10	-10	6087	-2.2	-8	5
N#Cc1ccc(CSc2nnc(NC(=O)c3ccc(=O)[nH]c3)s2)cc1	15	14	-23	4525	3.1	-3	1
Cc1ccc(N=C2CSC(=O)N2)cc1	0	9	8	3861	7.0	2	-1
CN1CCN(c2nc3ccccn3c(=O)c2/C=C(\C#N)S(=O)(=O)c2ccccc2)CC1	4	2	-21	4032	1.6	-2	1
CN1CCN(C(=O)C2(NC(=O)Nc3cccc(F)c3)CCCCC2)CC1	.	.	2	4894	0.7	3	0
CC1=NNC(=O)C1CCC(=O)N/N=C/c1ccco1 (configuration not stated)	.	.	-8	4672	.	.	-4
Cn1c(Cc2csc(N)n2)nnc1SC/C=C/c1ccccc1	.	.	-5	5013	1.5	5	-1
CCN(c1ccc(NC(=O)COC(=O)c2ccc(S(=O)(=O)N3CCCC3)cc2)cc1)C(C)C	4	2	-21	24507*	2.5	-7	0
COc1ccc(CNC(=O)CN(Cc2ccccc2OC)C(=O)c2csnn2)cc1	-8	-1	-18	5739	-2.3	3	1
CCN1CCN(CC(=O)c2cc(Cl)ccc2Cl)CC1	2	5	-15	4855	0.1	2	.
c1ccc(-c2cnc(C3CCCCC3)o2)cc1	22	15	-35	2799	5.8	6	.
O=C(NCc1cccnc1)Nc1ccc([N+](=O)[O-])cc1	-10	11	-4	5451	0.3	-9	5
O=c1[nH]c(N2CCN(c3ccccc3)CC2)nc2c1CCCC2	17	13	-25	3304	8.2	4	-1
COc1ccc(-n2nc(C(=O)NCC(=O)N3CCCCCC3)c3ccccc3c2=O)cc1	14	1	-23	3945	-1.1	1	-9
Cc1cc(C)c(OCC(=O)N(Cc2ccccc2)C2CCS(=O)(=O)C2)c(C)c1 (configuration not stated)	15	3	-17	6234	1.1	-2	4
COc1cccc(C=NNC(=O)C(=O)N2CCCCCC2)c1O	6	-6	.	.	2.3	-2	.
Cc1cc(C(=O)NP(=O)(N2CCOCC2)N2CCOCC2)c(C)n1-c1ccc(N(C)C)cc1	-1	7	-18	2168	4.1	-9	-6
COc1ccc(S(=O)(=O)NCC2CCCO2)cc1Cl (configuration not stated)	.	.	-5	2925	.	.	-1
Cc1c(C=NNC(=O)CNc2ccccc2)c2ccccn2c1C(=O)c1ccc(Cl)cc1	-1	3	.	.	-7.5	-28	.
COC(=O)c1sc(NC(=S)NC(=O)c2ccccc2Cl)nc1C	5	8	-42	2191	7.0	9	16
CCOC(=S)SCc1cn2cccc(C)c2n1	15	13	-10	4625	2.6	14	-5
Cn1nnc(NC(=S)NC(=O)c2cccs2)n1	7	1	-21	2485	0.8	1	-1
CCc1ccc(OCC(=O)Nc2cccc3c2CCCC3)cc1	6	-14	-19	2515	25	99*	3
CCn1c(SCC(=O)Nc2ccccc2)nnc1-c1ccc(S(=O)(=O)N2CCOCC2)cc1	-1	10	-16	9473	1.3	2	-1
O=C(NCCc1c[nH]c2ccccc12)c1cnc2n(c1=O)CCS2	6	0	-14	5834	4.5	12	0
O=c1[nH]c(CN2CCN(S(=O)(=O)c3ccc4c(c3)OCCO4)CC2)nc2sc3c(c12)CCCC3	11	9	-15	2197	2.2	0	-7
Cc1cc(C(=O)OCCN2C(=O)c3ccccc3C2=O)c2ccccc2n1	2	-2	-14	5723	4.6	2	1
COC(=O)NN=Cc1cn(CCOc2ccccc2)c2ccccc12	21	7	.	.	4.1	4	.
Cn1nc(-c2ccccc2)cc1NC(=O)CCCC(=O)O	-21	-5	-13	5776	0.0	1	9
Cc1cccc(N(CC(=O)NC2CCCCC2)C(=O)c2csnn2)c1	1	4	-19	3477	0.4	9	-9
Cc1cc(C(=O)N2CCN(c3ccccn3)CC2)no1	-1	2	-1	9989	0.0	-4	7
O=C(O)c1ccc2c(=O)n3c(nc2c1)/C(=C/c1ccc(Cl)c([N+](=O)[O-])c1)CC3	7	1	-20	3652	0.3	9	-4
CC1(C)CC(=O)C(C=NCCN2CCN(C(=O)c3ccccc3)CC2)=C(O)C1	4	5	-22	11313	3.6	3	-3
COc1cccc(/C=C/C(=O)OCC(=O)c2c[nH]c3ccccc23)c1	-3	2	-13	8437	2.0	-5	.
O=C(O)c1ccc(N/N=C/c2ccc(-c3cc(Cl)ccc3Cl)o2)cc1	.	.	-51	4898	.	.	7
CCOc1ccc(C(=O)Nc2ccccc2N2CCCC2)cc1	4	3	-11	3708	5.7	13	-4
COc1ccc(-c2[nH]ncc2CN2CCC(C(=O)N3CCOCC3)CC2)c(F)c1	14	3	3	3211	13	-67	8
COc1cccc(C(=O)NCC2CCN(c3ccc(S(=O)(=O)N4CCOCC4)cc3)CC2)c1	.	.	-14	10368	2.0	-4	12
O=S(=O)(c1ccc(N2CCN(c3ccc(F)cc3)CC2)cc1)N1CCCC1	6	8	-38	9751	4.0	6	-23
COc1ccc(CN2C(=O)c3ccccc3C2=O)cc1	10	5	-5	2836	2.1	5	1
CCc1nccn1CCC(=O)N1CCCC(N2CCN(c3cccc(Cl)c3)CC2)C1 (configuration not stated)	4	6	-26	6244	2.2	2	-7
CCOC(=O)N1CCN(S(=O)(=O)c2ccc(C(=O)N(CCN(CC)CC)c3nc4ccc(C)cc4s3)cc2)CC1	15	3	-27	6640	1.0	7	-4
O=C1CC(C(=O)NCc2ccccc2)N=C(N2CCCCC2)N1 (configuration not stated)	7	1	-16	3974	3.1	2	-5
CS(=O)(=O)N1CCN(Cc2ccc(C(F)(F)F)cc2)CC1	4	2	-27	4712	2.6	2	-13
O=C(CCCN1C(=O)/C(=C/c2cccs2)SC1=S)NNC(=O)c1ccncc1	8	4	-4	2477	3.7	2	-10
O=C(Cc1cccs1)NCc1ccc(F)cc1	12	11	-16	3697	0.8	0	21

(listing goes on)
SMILES	Mtb hypoxia inh	Mtb hypoxia inh growth	PrP 5UTR inh	Autofluor counter	Sa RN4220 lethal	Sa ugtP lethal	BJeLR lethal
NC1=NC(c2cn[nH]c2-c2ccc(F)cc2)n2c(nc3ccccc32)N1 (configuration not stated)	11	8	.	.	7.0	4	3
CCCCn1c(-c2ccco2)n[nH]c1=S	6	6	-4	2010	3.2	0	-2
CCOc1ccc(C(C)=O)cc1CSc1nnc(-c2cccs2)n1CC1CCCO1 (configuration not stated)	.	.	-5	3055	2.7	-4	2
O=C(Nc1nc2ccc(Cl)cc2s1)C1CC1	2	3	-62	3264	-2.7	6	-10
C=CCSc1nc(C)c(CC(=O)OCCCC)c(=O)[nH]1	2	3	-16	2877	3.3	-4	-4
N#CCC(=O)NN=Cc1cn(Cc2ccc(Cl)cc2Cl)c2ccccc12	6	-5	.	.	2.8	-7	.
CN(C(=O)COC(=O)CCC1CCCCC1)c1c(N)n(Cc2ccccc2)c(=O)[nH]c1=O	.	.	-14	5554	.	.	-10
CCc1c(OC(C)=O)c2ccccc2n(C)c1=O	-6	-3	-14	7134	4.3	-2	-1
Cc1c(NC(=O)c2ccc(NS(=O)(=O)c3cccc([N+](=O)[O-])c3)cc2)c(=O)n(-c2ccccc2)n1C	9	8	-27	3910	5.0	6	.
CC1CCN(CCn2c(=S)[nH]c3cc4c(cc3c2=O)OCO4)CC1	8	5	-16	4269	4.7	4	-2
Cc1cc(F)ccc1NC(=O)c1cnccn1	-1	3	-7	4071	5.7	-1	-6
O=C(COC(=O)c1cncc(Br)c1)NCC1CCCO1 (configuration not stated)	6	6	-24	3186	2.8	3	-14
CCCCn1c(N)c(N(CC(C)C)C(=O)C2CCN(S(=O)(=O)c3ccc(Cl)cc3)CC2)c(=O)[nH]c1=O	-4	-4	-32	5746	-0.8	6	-5

Of the compounds above, these contain a Cl atom.
SMILES	Mtb hypoxia inh	Mtb hypoxia inh growth	PrP 5UTR inh	Autofluor counter	Sa RN4220 lethal	Sa ugtP lethal	BJeLR lethal
CCN(CC)C(=O)[C@H]1C[C@H](CC(=O)NCC23CC4CC(CC(C4)C2)C3)C(=O)N2CCc3c([nH]c4ccc(Cl)cc34)[C@]12C	2	7	-23	4102	-16	-16	.
Cc1c(C)c2cc(Cl)c(O)c(CN3CCN(C)CC3)c2oc1=O	-6	-2	-2	3895	1.1	-2	-3
O=C(N/N=C/c1cc2cc3c(cc2nc1Cl)OCO3)c1ccncc1	.	.	-5	4289	.	.	6
CON=Cc1ccc(N2CCN(C(=O)c3cccc(Cl)c3)CC2)c([N+](=O)[O-])c1	5	6	.	.	5.3	-1	.
CCN1CCN(CC(=O)c2cc(Cl)ccc2Cl)CC1	2	5	-15	4855	0.1	2	.
COc1ccc(S(=O)(=O)NCC2CCCO2)cc1Cl (configuration not stated)	.	.	-5	2925	.	.	-1
Cc1c(C=NNC(=O)CNc2ccccc2)c2ccccn2c1C(=O)c1ccc(Cl)cc1	-1	3	.	.	-7.5	-28	.
COC(=O)c1sc(NC(=S)NC(=O)c2ccccc2Cl)nc1C	5	8	-42	2191	7.0	9	16
O=C(O)c1ccc2c(=O)n3c(nc2c1)/C(=C/c1ccc(Cl)c([N+](=O)[O-])c1)CC3	7	1	-20	3652	0.3	9	-4
O=C(O)c1ccc(N/N=C/c2ccc(-c3cc(Cl)ccc3Cl)o2)cc1	.	.	-51	4898	.	.	7
CCc1nccn1CCC(=O)N1CCCC(N2CCN(c3cccc(Cl)c3)CC2)C1 (configuration not stated)	4	6	-26	6244	2.2	2	-7
O=C(Nc1nc2ccc(Cl)cc2s1)C1CC1	2	3	-62	3264	-2.7	6	-10
N#CCC(=O)NN=Cc1cn(Cc2ccc(Cl)cc2Cl)c2ccccc12	6	-5	.	.	2.8	-7	.
CCCCn1c(N)c(N(CC(C)C)C(=O)C2CCN(S(=O)(=O)c3ccc(Cl)cc3)CC2)c(=O)[nH]c1=O	-4	-4	-32	5746	-0.8	6	-5

Limited to PrP 5UTR inh, Mtb hypoxia inh and BJeLR lethal (two entries from above):
Structure,PrP 5UTR inh,Mtb hypoxia inh,BJeLR lethal
CC1CCN(CCn2c(=S)[nH]c3cc4c(cc3c2=O)OCO4)CC1,-16,8,-2
CCc1c(OC(C)=O)c2ccccc2n(C)c1=O,-14,-6,-1
